# Source: PubChem BioAssay (several laboratories)
# HNF4A DNA FP = change in binding of human HNF4A to DNA, primary screen, biochemical, fluorescence polarization, FITC-DNA; activity change, % at 10 µM; AID 1224865, 2016; hit rate 0.3% among 360,000; Hepatocyte nuclear factor 4-alpha (Homo sapiens), P41235; 1 h; in the data active means activity change above about 30%, passing the limit was not always enough;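 further: controls were the assay level and a saturating level of protein; the project sought stronger binding though the title names inhibitors; some compounds called inactive have numbers as strong as hits; positive values seem to mean higher polarization but the record does not say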
# Target sequence (P41235 whole entry, looked up): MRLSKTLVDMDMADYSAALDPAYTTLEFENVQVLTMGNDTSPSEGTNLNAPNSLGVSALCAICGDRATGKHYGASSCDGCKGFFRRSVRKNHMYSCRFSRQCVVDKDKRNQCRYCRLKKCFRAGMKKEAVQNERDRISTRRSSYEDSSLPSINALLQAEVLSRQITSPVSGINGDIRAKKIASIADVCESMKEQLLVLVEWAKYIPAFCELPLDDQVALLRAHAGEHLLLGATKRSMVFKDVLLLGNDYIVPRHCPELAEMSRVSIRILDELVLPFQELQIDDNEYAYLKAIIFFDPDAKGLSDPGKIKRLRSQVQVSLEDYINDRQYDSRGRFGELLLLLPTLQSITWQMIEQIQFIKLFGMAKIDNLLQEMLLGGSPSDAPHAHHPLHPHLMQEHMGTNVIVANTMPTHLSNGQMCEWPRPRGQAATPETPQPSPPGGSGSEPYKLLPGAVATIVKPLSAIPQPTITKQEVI
# FGF22 binding = binders of human FGF22 protein, primary screen, FGF22 synaptogenesis inhibitor project, biophysical, thermal shift, single point | Fibroblast growth factor 22 (Homo sapiens), Q9HCT0 | recombinant FGF22 thermal shift, SYPRO orange fluorescence; percent of sucrose octasulfate shift, DMSO zero | calls only at 9.99 µM | hit rate 1.5% among 340,000 | AID 651658, 2012;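 active means melting point raised past a set limit in the mean and every replicate; three in four hits are not shown here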
# Target sequence (Q9HCT0 whole entry, looked up): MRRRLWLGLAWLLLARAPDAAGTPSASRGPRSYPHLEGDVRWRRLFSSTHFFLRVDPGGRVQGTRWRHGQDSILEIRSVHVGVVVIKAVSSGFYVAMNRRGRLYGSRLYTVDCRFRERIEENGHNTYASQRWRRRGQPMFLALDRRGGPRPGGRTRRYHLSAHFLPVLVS
# UCH37 inh = inhibitors of human UCH37 deubiquitinase, primary screen, biochemical, Ub-AMC cleavage, fluorescence; Ubiquitin carboxyl-terminal hydrolase isozyme L5 (Homo sapiens), Q9Y5K5; purified proteasome/UCH37; inhibition, % (concentration not given with the values); hit rate 0.33% among 330,000;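 active means mean of two replicates above 20%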;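 further: 0% = compound-free wells with enzyme and 100% = wells lacking proteasome; stock transfer was 100 nL into about 20 µL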
# Target sequence (Q9Y5K5 whole entry, looked up): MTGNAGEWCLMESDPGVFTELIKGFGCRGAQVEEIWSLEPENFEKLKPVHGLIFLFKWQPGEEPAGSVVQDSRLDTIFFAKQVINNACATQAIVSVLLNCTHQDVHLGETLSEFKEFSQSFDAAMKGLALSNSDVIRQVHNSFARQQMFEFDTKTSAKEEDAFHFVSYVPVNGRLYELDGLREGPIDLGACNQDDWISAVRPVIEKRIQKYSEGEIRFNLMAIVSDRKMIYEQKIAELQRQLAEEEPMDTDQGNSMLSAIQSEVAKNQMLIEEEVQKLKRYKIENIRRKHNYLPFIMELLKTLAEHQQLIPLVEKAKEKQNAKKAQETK
#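 assay system = human UCH37 enzyme supplied as purified proteasome complex | amount = proteasome at 0.15 nM in the dispensed enzyme solution | schedule = 30 min compound-proteasome preincubation then 25 min substrate reaction, room temperature | measured by = fluorescence, ex 355 nm, em 460 nm | benchmarks = no-proteasome wells (full inhibition) and compound-free wells (no inhibition)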
# ALR inh = inhibitors of human ALR sulfhydryl oxidase, primary screen, biochemical, H2O2 detection, HRP-luminol luminescence, single point; hit rate 3.8% among 290,000; inhibition, % (concentration not given with the values); FAD-linked sulfhydryl oxidase ALR (Homo sapiens), P55789; AID 485317, 2010; purified ALR, DTT oxidation;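 active means mean and each replicate at 75% or more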;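 further: stock transfer was 7.5 nL into about 7.5 µL; 0% = neutral wells and 100% = wells with inactivated enzyme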
# E coli growth = E. coli growth inhibition, primary screen, OD600. hit rate 0.21% among 330,000. Escherichia coli growth, 23 h; active compounds read low. OD600 absorbance (concentration not given with the values). AID 1053175, 2014;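 active means OD600 absorbance below the run mean of sample wells minus 3.6 SD, in any replicate, cut at about 0.56 in these data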;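 further: stock transfer was 300 nL into about 60 µL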
# Ecoli rRNA inh = reduced GFP signal of wild-type E. coli, primary screen, bacterial rRNA inhibitor project, GFP/RFP fluorescence, OD600, single point. GFP signal change (wild-type ribosome), % (no concentration beside the values). AID 720706, 2013. E. coli WT GFP vs humanized-ribosome RFP mutants, 24 h; active compounds read low; DMSO median 0, no signal -100. hit rate 1.6% among 350,000;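 active means significant combined selectivity score with lowered wild-type GFP, culture density cut under 30%, mutant RFP and density less affected; inactive means any of these conditions unmet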; further: one replicate is shown; some compounds called inactive have numbers as strong as hits
# B2AR ag = beta2AR agonists driving receptor internalization, primary screen, cell-based, FAP fluorogen, flow cytometry. response, % (concentration not given with the values). Am2.2-beta2AR cells; reference of the scale not given here. Beta-2 adrenergic receptor (Homo sapiens), P07550. AID 504454, 2011. hit rate 0.43% among 340,000;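 active means response above a set limit, near 3 SD of response in nonfluorescent compounds, cut at about 42% in these data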;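 further: stock transfer was 100 nL into about 11 µL; a reference agonist was the positive control; negative values mostly stem from fluorescent compounds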
# Ecoli rRNA inh OD600 = also measured in Ecoli rRNA inh; calls as there; OD600 change, %; measured here: OD600 growth;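 optical density of the mix in the first replicate; 0 = DMSO median and -100 = no signal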
# Ecoli rRNA inh RFP = further read-out of Ecoli rRNA inh, marked with its call; RFP signal change, %; measured here: RFP humanized mutant strains;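 first replicate; 0 = DMSO median and -100 = no signal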
# * marks the source's active call; other numbers are inactive results; i = inactive; x = not tested or not shown; + = active, no number. Only part of the results is shown. The share of hits here may be higher or lower than overall.
SMILES,HNF4A DNA FP,FGF22 binding,UCH37 inh,ALR inh,E coli growth,Ecoli rRNA inh,Ecoli rRNA inh OD600,Ecoli rRNA inh RFP,B2AR ag
O=C1N/C(=N\N=C\c2cccs2)SC1Cc1cccc(Cl)c1 (stereo unspecified),1.3,x,x,-5,x,x,x,x,-5
O=C(C(=S)N1CCOCC1)c1c[nH]c2ccccc12,0.1,i,3.0,20,0.66,11,8,0.1,1
CC(C)(C)c1ccc(CNC(=O)C2CCCN2C(=O)Nc2ccccc2)cc1 (stereo unspecified),-2.5,i,0.8,-11,0.69,-2,-1,-0.7,-4
CC(C)C[C@@H](CNCC(=O)[C@H](Cc1c[nH]c2ccccc12)NC(=O)c1[nH]cnc1C(=O)N[C@@H](C)CN)NC(=O)c1nc[nH]c1C(=O)N[C@@H](Cc1ccccc1)C(=O)O,2.8,i,x,x,x,-2,5,0.3,4
COCc1nc2ccccc2n1Cc1ccc(Br)cc1,1.3,x,0.1,0,0.68,x,x,x,-5
CN(CCCC(=O)NC1CC(C)(C)NC(C)(C)C1)S(=O)(=O)c1ccc([N+](=O)[O-])cc1,1.4,i,2.9,-36,0.69,12,16,-4.3,10
Cc1cccc(NC(=O)CN2CCOCC2)c1C,0.6,i,1.8,-1,0.68,15,8,1.4,-3
O=C1NCC2=C1C(c1ccccc1)Nc1ccccc1N2 (stereo unspecified),0.0,x,3.0,72,0.66,x,x,x,7
CC1(OC(=O)CCc2ccccc2)C(=O)C=C2C=C(c3ccc(C#N)cc3)N(C3CC3)C=C2C1=O (stereo unspecified),3.0,i,4.0,x,0.66,16,5,6.7,6
O=C(O)c1ccc(/C=N/O)cc1,-3.6,i,x,-1,x,15,11,-0.8,9
O=C(Cc1ccc(F)cc1)N1CCC2(CC1)NCCc1[nH]cnc12,-0.1,i,0.8,x,0.75,17,18,7.0,-2
O=C(NCC1CCCN(C(=O)c2cc(Cl)ccc2F)C1)c1ccc(F)cc1 (stereo unspecified),7.2,i,3.9,0,0.7,-2,5,0.3,-3
CN(C)C(CNC(=O)c1cccc(S(=O)(=O)N(C)C)c1)c1ccccc1 (stereo unspecified),1.7,x,5.0,1,0.71,x,x,x,-6
CCCCN1C(=O)C(CC(=O)NCCc2ccccn2)CC(C(=O)N(C)C)=C1C (stereo unspecified),1.8,i,x,x,x,-1,3,7.7,x
Cc1cccc2sc(N(CCCN(C)C)C(=O)c3ccc(Cl)s3)nc12,2.2,i,4.8,-4,0.62,-49,-56,-5.3,10
COc1ccccc1-c1cc(C(F)(F)F)nc(S(=O)(=O)CCCC(=O)NCc2ccc(F)cc2)n1,6.0,+,-13,61,0.67,15,9,9.7,37
CC(=O)N1CCN(C(=O)c2cc(S(=O)(=O)N3CCN(c4ccccc4)CC3)ccc2Cl)CC1,-4.0,i,-0.1,x,0.68,-4,3,-3.2,0
O=C(COC(=O)C1CCCN1C(=O)c1cccs1)Nc1ccc2c(c1)OCO2 (stereo unspecified),2.3,x,1.3,43,0.72,x,x,x,0
Cc1ccc(NC(=O)Cn2ccc([N+](=O)[O-])n2)cc1C,8.2,i,0.4,-2,0.71,14,15,3.0,-2
N#Cc1ccccc1NC(=O)CSc1n[nH]c(-c2ccco2)n1,-3.2,i,1.7,-2,0.73,8,16,1.5,-4
O=C(Oc1nsnc1N1CCOCC1)c1ccccc1,-3.1,i,3.5,26,0.71,3,3,2.2,5
CCCOC(=O)CN1C(=O)c2ccccc2C1=O,-0.4,x,0.1,-7,0.7,x,x,x,3
CSc1sc(C(=O)NNC(C)=O)c2c1C=CCC2,0.6,i,-0.2,-3,0.64,-4,-5,2.1,1
Cc1sc2ncnc(OCc3nnc(-c4cccs4)o3)c2c1C,2.7,i,2.3,x,0.72,-21,-17,11,-2
CC(C)Cn1c(SCC(=O)Nc2cccc(S(N)(=O)=O)c2)nc2ccccc2c1=O,-1.2,i,2.6,-4,0.71,5,9,-0.8,4
# Additional entries follow:
SMILES,HNF4A DNA FP,FGF22 binding,UCH37 inh,ALR inh,E coli growth,Ecoli rRNA inh,Ecoli rRNA inh OD600,Ecoli rRNA inh RFP,B2AR ag
CCC(CC)NC(=O)c1cccc(Oc2ccccc2)c1,5.3,i,3.6,-18,0.62,-9,-15,-2.7,-3
CN(C)S(=O)(=O)c1cccc(NC(=O)CCc2nc3sc4c(c3c(=O)[nH]2)CCCC4)c1,0.3,i,1.2,x,0.69,x,x,x,9
O=C(Nc1ccc(CN2CCOCC2)cc1)c1cccc(-c2cc3ccccc3oc2=O)c1,-0.2,i,-8.4,28,0.66,-10,-9,-3.0,30
O=C(CN1N=C(c2ccccc2)CCC1=O)NCc1ccccc1,-0.9,i,0.8,2,0.71,14,5,0.6,-3
CCCCSc1nn[nH]n1,1.8,i,0.6,-1,0.68,12,7,1.5,-9
O=C(c1ccc(Cl)nc1)N1CCc2ccccc2C1,-3.6,x,3.2,-5,0.7,x,x,x,-3
Cc1cccc(-n2ncc3c(N4CCOCC4)ncnc32)c1,2.3,i,4.7,4,0.7,-1,-10,-2.9,-6
COc1ccccc1NC(=O)c1ccccc1N(Cc1ccccc1)S(C)(=O)=O,0.8,i,4.8,5,0.67,-20,-22,-7.3,6
Nc1nccc(N2CCCCC2)n1,-0.1,i,x,x,x,0,5,-5.2,x
NC(=O)C1CCN(c2nc3ccccc3nc2NS(=O)(=O)c2ccc(Br)cc2)CC1,-8.8,x,8.0,x,0.67,10,-16,4.8,7
CCCN(CC(=O)Nc1ccccc1C)C(=O)c1cccc(S(=O)(=O)N2CCc3ccccc3C2)c1,-3.0,i,2.6,1,0.7,-21*,-13*,-0.6*,10
O=c1cc(CSc2nnc(COc3ccccc3Cl)o2)nc2sccn12,-2.2,i,3.5,-9,0.67,x,x,x,-9
Cc1ccc(-c2nc3ncccn3c2NC2CCCCC2)o1,-3.3,x,4.7,99*,0.68,x,x,x,-9
CCCCC(CC)C(=O)Nc1ccc(C#N)cc1 (stereo unspecified),2.9,x,3.1,-16,0.64,x,x,x,1
CCOc1ccccc1N(C(=O)c1snc(C(N)=O)c1N)C(CC)C(=O)NC1CCCC1 (stereo unspecified),3.6,i,x,x,x,3,14,0.0,-5
COc1ccc2oc3cc(C)[n+]([O-])c(-c4ccc(Cl)cc4)c3c2c1,3.6,x,-16,1,0.68,x,x,x,-1
CCOC(=O)c1c(C)n(CC(O)CN(CC)CC)c2cc(Br)c(OC)cc12 (stereo unspecified),1.8,i,3.8,-5,0.7,13,9,1.9,0
O=C1c2ccccc2C(=O)N1OCCOCCOCCON1C(=O)c2ccccc2C1=O,0.4,x,-3.1,-3,0.71,x,x,x,1
CCN1C(=O)/C(=C\N2CCN(c3cccc(Cl)c3)CC2)SC1=S,-0.7,x,-3.9,-8,0.73,x,x,x,-2
Cc1cc(C)c2nc(C(F)(F)F)nc(NCCCN3CCOCC3)c2c1,0.1,x,1.9,0,0.65,x,x,x,14
CCN(CC)C(=O)c1sc2nc(-c3ccc(OC)cc3)cn2c1C,-2.1,x,1.7,24,0.67,x,x,x,13
CCC(=O)NNc1nc2c(F)cc(F)cc2s1,2.7,i,1.5,x,0.8,6,11,-2.8,22
Cc1ccc(S(=O)(=O)N2CCC(=O)N(C(COCc3ccc(Cl)cc3)Cc3ccccc3)CC2)cc1 (stereo unspecified),1.1,i,2.7,-13,0.76,2,2,1.1,2
CC(=O)c1ccc(NC(=O)C2CCCN2S(=O)(=O)c2ccc(C)cc2)cc1 (stereo unspecified),2.1,i,1.3,x,0.72,-1,0,1.8,1
COCCNC(=O)C1(C)CCCN(C(=O)c2cc(F)cc(F)c2)C1 (stereo unspecified),1.0,i,x,x,x,8,10,-3.3,x
# Other results
SMILES,HNF4A DNA FP,FGF22 binding,UCH37 inh,ALR inh,E coli growth,Ecoli rRNA inh,Ecoli rRNA inh OD600,Ecoli rRNA inh RFP,B2AR ag
O=C(O)/C=C/C(=O)c1ccc(O)cc1,1.2,i,4.9,x,0.65,19,11,-0.9,1
CCc1ccc(S(=O)(=O)Nc2c(C)nn(C)c2C)cc1,1.9,x,4.1,-1,0.71,x,x,x,2
[O-]/[N+](=C\C=C\c1ccccc1)c1ccccc1,-1.6,i,-4.6,41,0.61,12,12,-1.2,1
Cc1nnc(Oc2ccccc2F)c2ccccc12,-4.4,x,0.3,-3,0.7,x,x,x,-9
CCOc1cccc(-c2nc(C(N)=O)c3[nH]c(=O)n(-c4cccc(Cl)c4)c3n2)c1O,-2.6,i,4.8,6,0.8,x,x,x,-11
CCc1ccc(CCC(=O)Nc2ccc(C)cc2C)o1,9.1,x,4.0,8,0.7,x,x,x,-8
Cc1c(N=C2C=C(Br)C(=O)C(Br)=C2)c(=O)n(-c2ccccc2)n1C,-1.0,i,2.4,x,0.72,-11,-10,5.0,1
Cc1ccc(-c2n[nH]c(=S)n2/N=C/C=C\c2ccccc2[N+](=O)[O-])cc1,1.8,x,x,21,x,x,x,x,6
CS(=O)(=O)N1CCC2(CC1)OCCN2S(=O)(=O)c1ccccc1,-0.3,i,-0.8,-1,0.67,5,4,0.6,-3
ON(CCc1ccncc1)Cc1ccccc1,3.9,i,2.1,x,0.66,13,11,0.5,-6
CCN(C(=N)N=C(N)N)c1ccccc1,3.0,i,1.5,-14,0.73,12,14,-0.4,-5
CCOC(=O)C1CCN(c2ncnc3c2cnn3C)CC1,101*,x,2.2,9,0.64,-1,-4,2.1,0
COc1ccc(Cc2n[nH]c(=S)n2Cc2ccccc2)cc1Cl,-3.6,i,-0.4,x,0.71,-42,-67,-7.4,3
O=C(NCc1ccccc1Cl)c1ccc2nc[nH]c2c1,1.9,i,5.3,3,0.68,x,x,x,-8
O=C(COC(=O)/C=C/c1ccc(OC(F)F)cc1)Nc1ccc(S(=O)(=O)N2CCCC2)cc1,3.6,x,2.5,x,0.72,x,x,x,-4
COc1cc2oc(=O)cc(-c3ccc(-c4ccc(C)cc4)cc3)c2c(OC)c1OC,-1.6,i,-14,x,0.73,26,9,0.6,-1
CC1CCC2(CC1)NC(=O)N(CC(=O)Nc1ccc(C(N)=O)cc1)C2=O (stereo unspecified),3.2,i,-3.1,-2,0.67,8,11,1.0,-8
C/C(=N\NC(=O)c1nc2ccccn2c1C)c1cccc([N+](=O)[O-])c1,-1.2,i,x,5,x,8,-4,-0.3,-2
CC(C)(C)OC(=O)NCc1ccc(CNC(=O)c2nc[nH]c2C(=O)N2CCc3ccccc3C2)cc1,-6.4,i,-1.2,-13,0.69,-2,2,-1.5,0

# Record cards, from the list above. Screens in order: HNF4A DNA FP	FGF22 binding	UCH37 inh	ALR inh	E coli growth	Ecoli rRNA inh	Ecoli rRNA inh OD600	Ecoli rRNA inh RFP	B2AR ag
# Record of `CCOc1cccc(-c2nc(C(N)=O)c3[nH]c(=O)n(-c4cccc(Cl)c4)c3n2)c1O` : -2.6	i	4.8	6	0.8	x	x	x	-11
# Record of `ON(CCc1ccncc1)Cc1ccccc1` : 3.9	i	2.1	x	0.66	13	11	0.5	-6
# Record of `CCN(C(=N)N=C(N)N)c1ccccc1` : 3.0	i	1.5	-14	0.73	12	14	-0.4	-5
